Mtb H37Rv: Mycobacterium tuberculosis H37Rv growth inhibition, cell based, confirmatory dose response (AID 1949); M. tuberculosis H37Rv growth inhibition; most inactive calls were filed without a number and no value below 0 was filed; inhibition, % at 10 µg/mL, or IC50 in µg/mL where a hit was titrated; 100,000 tested, 1.6% active;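 active = confirmed in a dose series; inconclusive = about 50% or more but not retested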;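 also: bacteria grown 7 days with compound before Alamar blue readout; 0% = untreated bacteria and 100% = reference antibiotic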
Starred values were filed as active, the others as inactive; i = inactive; ? = inconclusive.

SMILES	Mtb H37Rv
N#Cc1ccc(CSc2nnc(-c3ccncc3)n2-c2ccc(Br)cc2)cc1	i
O=C(NC(=S)NC12CC3CC(CC(C3)C1)C2)c1ccco1	2.6%
COc1ccc(OC)c(NC(=O)COc2ccc(C)cc2)c1	17.6%
CCOC(=O)c1cc2cc([N+](=O)[O-])ccc2s1	?
OCc1cn(-c2ccccc2)nc1-c1ccco1	i
Cc1ccc(-n2c(C)nnc2SCC(=O)Nc2ccc(F)c(Cl)c2)cc1	i
COCCCNC(=S)NNC(=O)C(C)Oc1ccc(-c2ccccc2)cc1 (centres undefined)	i
Cc1ccccc1Cn1c(CC(C)(C)C)nc2ccccc21	40.5%
CC(NC(=O)CCCC(=O)O)C12CC3CC(CC(C3)C1)C2 (centres undefined)	i
Cc1ccnc(NS(=O)(=O)c2ccc(NC(=O)c3sc4ccccc4c3Cl)cc2)n1	i
CCc1ccccc1NC(=O)c1ccc(OCc2ccccc2)c(OC)c1	i
CC(=O)c1ccc(OCCOc2ccc(C(C)=O)cc2)cc1	11.7%
Cc1nc(Nc2nc3ccccc3o2)nc(-c2ccc(Cl)cc2)c1C#N	i
CCc1ccc(OC(=O)c2ccc(OC)c(I)c2)cc1	i
NC(=O)C1(N2CCCCC2)CCN(C2CC(=O)N(c3ccccc3Cl)C2=O)CC1 (centres undefined)	i
COc1ccccc1CC(=O)Nc1nnc(CC(C)(C)C)s1	i
Cc1cc(C(=O)Nc2ccc(Cl)cc2)c(C)o1	i
CC(C)CNC(=O)c1ccccc1NS(C)(=O)=O	i
COCC(=O)Nc1ccc(S(=O)(=O)N2CCCC2)cc1	i
COc1ccc(S(=O)(=O)N(CC(=O)Nc2cccc(N(C)S(C)(=O)=O)c2)c2ccc(C)cc2)cc1	i

SMILES	Mtb H37Rv
O=C(O)c1c(C(=O)O)c2ccccc2[nH]c1=O	i
Cc1cc(C)n2nc(C(=O)Nc3ccc4c(c3)OCO4)nc2n1	i
O=C(NC1CCC(NC(=O)c2cccc(Cl)c2)CC1)c1cccc(Cl)c1 (centres undefined)	i
Cc1cc(=O)[nH]c(SC(C)C(=O)NC2CCCCC2)n1 (centres undefined)	i
S=c1[nH]nc(-c2ccc(Cl)cc2)n1Cc1ccco1	6.3%
CCN(CC)c1ccc(C2C(C(=O)N3CCOCC3)=C(C)NC3=C2C(=O)CCC3)cc1 (centres undefined)	i
CC(C)(C)NS(=O)(=O)c1ccc(NC(=O)C(c2ccccc2)c2ccccc2)cc1	i
COc1ccccc1OCC(=O)Nc1ccc(S(=O)(=O)NCCc2ccccc2)cc1	3.3%
CC(=O)c1ccccc1OC(=O)CCN1C(=O)c2ccccc2C1=O	i
Cc1c(OCC(=O)NC2CCCC2)ccc2c1oc(=O)c1ccccc12	35.8%
CC1=C(C(=O)Nc2ccccc2)C(c2ccccc2F)NC(=O)N1 (centres undefined)	2.4%
Cn1ncc(NC(=S)Nc2cccc([N+](=O)[O-])c2)c1C(N)=O	i
Nc1ccc(C2CCCCC2)cc1	i
CCc1ccc(S(=O)(=O)Nc2cc(C)ccc2OC)cc1	4.8%
Cc1ccc(C(=O)Nc2nc3c(C)cccc3s2)cc1[N+](=O)[O-]	i
COc1cc(NC(=O)c2cnn3cccnc23)c(OC)cc1Cl	0.5%
O=C(NNC(=S)NCc1ccc(F)cc1)c1ccc(OC2CCCC2)cc1	i
CC(=O)c1c(C)oc2ccc(NS(=O)(=O)c3cccc4cccnc34)cc12	i
COc1cccc(Cn2cc([N+](=O)[O-])cn2)c1	i
O=C(COc1ccc2ccc(=O)oc2c1)c1ccc(N2CCCC2)cc1	5.2%

Six entries drawn at random from those above, as already listed:
SMILES	Mtb H37Rv
O=C(NNC(=S)NCc1ccc(F)cc1)c1ccc(OC2CCCC2)cc1	i
CCc1ccccc1NC(=O)c1ccc(OCc2ccccc2)c(OC)c1	i
OCc1cn(-c2ccccc2)nc1-c1ccco1	i
CC(=O)c1c(C)oc2ccc(NS(=O)(=O)c3cccc4cccnc34)cc12	i
S=c1[nH]nc(-c2ccc(Cl)cc2)n1Cc1ccco1	6.3%
O=C(COc1ccc2ccc(=O)oc2c1)c1ccc(N2CCCC2)cc1	5.2%

Further structures.
SMILES	Mtb H37Rv
CN1CCN(c2ccc(C#N)cc2[N+](=O)[O-])CC1	i
Cc1cc(NC(=O)C2C3C=CC(C3)C2C(=O)O)ccc1NC(=O)c1cccs1 (centres undefined)	i
COC(=O)C1=CNC=C(C(=O)OC)C1c1ccc(C(F)(F)F)cc1	2.4%
CC(C)(C)NC(=O)CSc1nnnn1-c1ccccc1Cl	i
COc1cc(S(=O)(=O)N2CCN(C)CC2)c(OC)cc1Cl	i
Cc1ccccc1C1CC(=O)Nc2sc3c(C)c(C#N)c(N)nc3c21 (centres undefined)	0.7%
CCOC(=O)c1cc(Cc2ccccc2)sc1NC(=S)N1CCN(C(=O)c2ccco2)CC1	i
O=C(Nc1nccs1)c1ccccc1I	i
O=C(c1ccc(F)cc1)N1CCN(C(=O)c2cccnc2)CC1	i
CCn1c(CNC(=O)c2ccc(C)cc2)nnc1SCC(=O)Nc1cccc(C)c1C	i
NCCNCCCCOc1ccc(Br)cc1Cl	12.7%
O=C(COc1ccc(S(=O)(=O)N2CCCc3ccccc32)cc1)NCc1ccccn1	i
O=S(=O)(NCc1ccco1)c1ccc2c(c1)Cc1ccccc1-2	i
CC(=O)c1cccc(NC(=O)NCc2ccc3c(c2)OCO3)c1	1.5%
Cn1ncc([N+](=O)[O-])c1C(=O)Nc1cccc2ccccc12	33.4%
O=[N+]([O-])c1ccccc1S(=O)(=O)NCCSCc1c(F)cccc1Cl	8.4%
COc1ccc(COCC(O)CN2CCN(c3cccc(Cl)c3)CC2)cc1OC (centres undefined)	i
Cc1sc2nc(SCC(=O)NCCc3ccccc3)[nH]c(=O)c2c1C	6.5%
COc1ccc(OC)c(Nc2nc(-c3c(C)nc4sccn34)cs2)c1	1.7%
CC(NC(=O)c1ccco1)c1ccc(Cl)cc1 (centres undefined)	i

SMILES	Mtb H37Rv
CS(=O)(=O)N(CC(=O)Nc1cccc(F)c1)c1cccc(Br)c1	9.2%
NC(=O)c1cn(-c2ccccc2)nc1-c1ccc(Cl)s1	8.7%
N#Cc1nc(COc2cccc(Cl)c2)oc1N1CCCCCC1	39.8%
CC1(C)CC(=O)C(C2c3ccccc3S(=O)(=O)c3ccccc32)C(=O)C1	i
CC(=O)Nc1ccc(OCC(O)Cn2nc(C)nc2C)cc1 (centres undefined)	0.3%
COC(=O)c1ccc(C(=O)OC)c(NC(=O)c2ccccc2F)c1	i
CS(=O)(=O)N(Cc1ccccc1)Cc1ccccc1	i
O=C(Nc1nnc(-c2cccnc2)s1)c1ccco1	i
Cc1ccc(-c2nc3ncccc3o2)cc1NC(=O)c1ccc(C#N)cc1F	1.1%
CCN(CC)C(=O)c1sc(NC(=S)Nc2ccc3c(C(F)(F)F)cc(=O)oc3c2)c(C(=O)OC)c1C	1.9%
COc1cc(F)ccc1S(=O)(=O)N1CCN(c2cccc(Cl)c2)CC1	i
O=C(Nc1ccc2c3c(cccc13)CC2)c1cncc(Br)c1	39.1%
CC1CN(C(=S)Nc2ccc3c(c2)OCO3)CC(C)O1 (centres undefined)	i
CCOc1ccccc1N1CCN(C(=O)CC(C)(C)C)CC1	i
CC(C)CNC(=O)C(=O)NCCc1ccc(F)cc1	5.1%
COC(=O)c1ccc(C2C(C(C)=O)C(=O)CC(C)(O)C2C(C)=O)cc1 (centres undefined)	i
Cc1cc(C)n(-c2cc(-c3ccccc3)nc(C)n2)n1	i
NC(=O)c1ccc(NC(=O)C2c3ccccc3Oc3ccccc32)cc1	i
Cn1c(SCc2cccc(Cl)c2)nnc1-c1ccc(N)cc1	i
CCOC(=O)c1ccc(NC(=O)c2cc(Cl)ccc2NC(=O)c2ccc(OC)cc2)cc1	i

SMILES	Mtb H37Rv
O=C(O)CCc1ccc(-c2ccc(F)cc2)n1-c1cc(Cl)ccc1O	0.4%
COC(=O)COc1ccc(S(=O)(=O)Nc2ccc(F)c(Cl)c2)cc1	?
COc1ccc(OC)c(S(=O)(=O)Nc2ccc(OCc3ccccc3)cc2)c1	4.1%
CCOc1ccccc1C(=O)N1CCN(Cc2ccc(C)cc2)CC1	i
CC1=Nc2ccccc2N=C(NC(=O)CSc2nnc(C)s2)C1c1ccccc1 (centres undefined)	0.3%
CC(C)(C)c1cc(Cl)ccc1OCCOCCN1CCOCC1	i
C=CCSc1nnc2c3ccccc3n(CC=C)c2n1	i
CCCCCCn1c(=O)c2c(nc(NCc3ccco3)n2C)n(C)c1=O	8.3%
CC(=O)c1cccc(NC(=O)c2nn3c(C(F)(F)F)cc(-c4ccccc4)nc3c2Cl)c1	i
COC(=O)c1cn(Cc2ccc(F)cc2)c2ccccc12	2.3%
CCN(Cc1ccccc1)C1CCN(Cc2ccncc2)CC1	i
COc1ccccc1NC(=O)c1c(NCc2cccs2)sc2c1CCC2	i
COC(=O)c1ccc(Cl)c(NS(=O)(=O)c2ccc(C)cc2)c1	i
CC1CCCN(S(=O)(=O)c2ccc3oc(=O)ccc3c2)C1 (centres undefined)	i
O=C(Nc1ccc(Oc2ccccc2)cc1)C1CCN(S(=O)(=O)c2ccc(Cl)cc2)CC1	i
COc1ccc(C)cc1NC(=O)C1c2ccccc2Oc2ccccc21	i
CCOc1ccc(N(CC(=O)N2CCCCC2)S(=O)(=O)c2ccccc2)cc1	i
O=C(Nc1ccc(Oc2ccccc2)cc1)Nc1cccc([N+](=O)[O-])c1	1.09µg/mL*
Cc1nn(C)c(C)c1NC(=S)Nc1ccc2c(c1)OCO2	i
COc1ccccc1N1CCN(C2=NS(=O)(=O)c3ccccc32)CC1	i

Grouped by structure: those above containing an NH in an aromatic ring.
SMILES	Mtb H37Rv
O=C(O)c1c(C(=O)O)c2ccccc2[nH]c1=O	i
Cc1cc(=O)[nH]c(SC(C)C(=O)NC2CCCCC2)n1 (centres undefined)	i
S=c1[nH]nc(-c2ccc(Cl)cc2)n1Cc1ccco1	6.3%
Cc1sc2nc(SCC(=O)NCCc3ccccc3)[nH]c(=O)c2c1C	6.5%

Further structures.
SMILES	Mtb H37Rv
CCOc1ccc(NC(=O)C2CCN(S(C)(=O)=O)CC2)cc1	i
Nc1nc(-c2ccco2)nn1C(=O)CCc1ccccc1	i
Nc1ccc(-c2nnc(-c3ccco3)o2)cc1	i
O=C(NCCSCc1ccco1)Nc1ccc(Cl)cc1	i
CCOc1ccccc1C(=O)NC(=S)Nc1ccccc1C(N)=O	5.0%
CC(C)(C)c1cc(C(=O)N/N=C/c2ccc(O)cc2)n[nH]1	i
Cc1ccc(NC(=O)c2ccc(CSc3nnc(NC(=O)CCc4ccccc4)s3)cc2)c(C)c1	i
O=C(Cc1ccc(F)cc1)Nc1cccc(F)c1	i
COc1cc(CO)cc(I)c1OCc1cccc(F)c1	11.3%
COc1ccccc1C(=O)N1CCN(Cc2ccccc2C)CC1	i
CN(C)S(=O)(=O)c1ccc(C(=O)Nc2ccc(CN3CCCC3)cc2)cc1	4.0%
CN(C)c1ccc(CN2CCOC(=O)C2=O)cc1	i
CCCSc1nc(C)c2cc(C)cc(C)c2n1	i
O=C(O)CSc1nc(SCc2ccccc2)nc2ccccc12	i
CC(Sc1nc(-c2ccc(F)cc2)cs1)C(=O)NC(c1ccccc1)c1ccccc1 (centres undefined)	i
O=c1[nH]cnc2c1cnn2Cc1ccc(Cl)cc1	0.0%
Cc1ccccc1OCCCCn1c(C(C)O)nc2ccccc21 (centres undefined)	34.4%
COC(=O)C1=CN(C(C)C)C=C(C(=O)OC)C1c1cccs1	i
COCC(C)Nc1ncnc(N)c1[N+](=O)[O-] (centres undefined)	i
COc1ccc(N2CCN(C(=O)C(C)(C)Oc3ccc(Cl)cc3)CC2)cc1	1.6%

SMILES	Mtb H37Rv
CN1CCC(NC(=O)Nc2cccc(C(F)(F)F)c2)CC1	i
COc1cccc(C(=O)COc2ccc(NC(=O)c3ccccc3Cl)cc2)c1	i
Cc1ccc(N2CC(C(=O)NCCc3ccccc3Cl)CC2=O)cc1 (centres undefined)	i
COC(=O)c1c(NS(=O)(=O)c2ccc(Br)s2)sc2c1CCCC2	i
Cc1ccccc1CSc1nnc2sc3ccccc3n12	2.5%
CC1(C)CC2CC(C)(CN2C(=O)c2cc(-c3ccccc3)on2)C1 (centres undefined)	i
COc1ccc(CCNC(=O)C(Cc2c[nH]c3ccccc23)NC(C)=O)cc1 (centres undefined)	i
COc1ccc(C2CC(C(F)(F)F)n3nc(C(=O)Nc4ccc5c(c4)OCO5)cc3N2)cc1 (centres undefined)	i
CCOC(=O)Cn1nc(C)c(NC(=O)c2cccc(Cl)c2)c1C	i
O=C(Oc1ccc2c(=O)c(-c3ccc(Br)cc3)coc2c1)c1ccco1	i
CCOC(=O)c1ccc(NC(=S)N2CCC(CCN3CCCC3=O)CC2)cc1	i
O=C(Nc1ccccc1)OC1CC2CC1C1CCCC21 (centres undefined)	0.7%
Oc1c(C(Nc2ccccn2)c2ccccn2)cc(Cl)c2cccnc12 (centres undefined)	2.4%
CC(C(=O)O)n1cnc2scc(-c3ccc(Cl)cc3)c2c1=O (centres undefined)	i
O=C(COc1ccc(NC2(c3ccccc3)C(=O)c3ccccc3C2=O)cc1)N1CCOCC1	i
Cc1cc(Cl)ccc1NC(=O)COc1ccc(S(=O)(=O)NC(C)C)cc1	i

Some of the compounds tested (hit frequency here may not be typical).
